Compound activity: PubChem, several laboratories
GALR2 agonist: GALR2 (human) receptor agonism | O43603 | GALR2-expressing cells, agonist activation read-out | activation, %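 (tested at 5 µM)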 | actives 0.48% (n = 140,000) | AID 803;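 active = above mean plus 3 SD of all compounds, about 5% in these data, not always enough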;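 note: 0% = vehicle buffer wells and 100% = reference agonist at full effect; tested in CHO reporter cells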
Target sequence (O43603 whole entry, looked up): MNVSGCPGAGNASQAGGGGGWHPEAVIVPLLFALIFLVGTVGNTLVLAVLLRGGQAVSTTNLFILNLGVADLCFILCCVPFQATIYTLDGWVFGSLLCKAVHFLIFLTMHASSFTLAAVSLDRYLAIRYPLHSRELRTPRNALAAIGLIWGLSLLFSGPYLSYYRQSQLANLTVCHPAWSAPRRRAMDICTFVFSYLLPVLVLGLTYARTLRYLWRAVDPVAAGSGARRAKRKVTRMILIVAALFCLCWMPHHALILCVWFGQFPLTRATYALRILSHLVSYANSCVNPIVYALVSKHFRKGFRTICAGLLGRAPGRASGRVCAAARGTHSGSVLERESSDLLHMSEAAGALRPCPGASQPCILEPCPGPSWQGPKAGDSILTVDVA
Insulin prom inh: TRM-6 insulin promoter activity inhibition. TRM-6 cells (human fetal islet line), insulin promoter-eGFP reporter, imaging; reporter expression induced with tamoxifen. AID 1273. actives 0.9% (n = 130,000). inhibition, % at 2 µM;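 active = inhibition above the mean plus 3 SD, with well images judged a real hit on visual review, cut at about 60% in these data, passing the limit was not always enough; inconclusive = inhibition over the cutoff but images rejected on review; inactive = inhibition not above the cutoff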
RGS16-Gao HTS: modulates binding between human RGS16 and Galphao; O15492+P09471; bead-based flow cytometry RGS16-Galphao binding, fluorescence; actives lie on both sides; binding response (% of control), % at 10 µM; actives 0.38% (n = 220,000); AID 1441;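 active = below 25% or above 175%, edge rows of some plates excepted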;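 note: Galphao activated by GDP with aluminum fluoride before binding; 100% = wells without compound and 0% = beads without RGS; some results beyond the cut were filed as inactive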
Target sequence (O15492 whole entry, looked up): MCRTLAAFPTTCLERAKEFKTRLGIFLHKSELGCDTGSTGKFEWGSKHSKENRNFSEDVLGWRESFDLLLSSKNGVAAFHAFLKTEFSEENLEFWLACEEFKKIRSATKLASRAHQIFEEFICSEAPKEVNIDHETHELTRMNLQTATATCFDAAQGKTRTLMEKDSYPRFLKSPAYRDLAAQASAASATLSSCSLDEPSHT
Target sequence (P09471 whole entry, looked up): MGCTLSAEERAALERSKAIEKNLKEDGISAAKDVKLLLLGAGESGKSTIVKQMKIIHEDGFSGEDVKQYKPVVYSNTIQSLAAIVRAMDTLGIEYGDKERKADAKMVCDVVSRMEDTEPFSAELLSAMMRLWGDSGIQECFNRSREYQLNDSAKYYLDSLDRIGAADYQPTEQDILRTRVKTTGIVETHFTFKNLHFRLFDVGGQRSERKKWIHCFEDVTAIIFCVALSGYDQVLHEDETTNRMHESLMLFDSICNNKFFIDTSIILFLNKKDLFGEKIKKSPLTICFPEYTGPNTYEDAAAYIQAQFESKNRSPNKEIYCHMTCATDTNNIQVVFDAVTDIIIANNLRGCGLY
HSV augment: increases HSV replication in cells; HSV replication augmentation in cells, fold increase; maximum fold increase; actives 0.005% (n = 220,000); AID 1956;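 active = peak rise of 1.5-fold or more in the series; inconclusive = self-fluorescent or not available for retest; tested in PC3 cells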;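 note: first round at 10 µM; read as green reporter fluorescence; hits show the peak of a series up to 25 µM; 1 = signal of infected wells without compound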
PKD1 inh: blocks activity of human protein kinase D1; Q15139; PKD1 kinase fluorescence polarization assay; inhibition, %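 (about 10 µM by stock and volumes)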; actives 0.056% (n = 200,000);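 active = inhibition of 50% or more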;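 note: controls were vehicle for no effect and a reference inhibitor for full effect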
Insulin prom inh cell count: further read-out of Insulin prom inh, marked with its call; normalized cell count, %; measured here: cell count, toxicity; reference of the scale not given here;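 cells exposed to compound for 48 h; stained nuclei by imaging scaled within each plate; lower means fewer cells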
HSV augment primary fold: further read-out of HSV augment, marked with its call; fold increase; compound at 10 µM; measured here: primary screen fold increase 10 uM; tested in PC3 cells;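 GFP signal in the first replicate; 1 = infected wells without compound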
* = called active by the depositor; i = inactive; ? = inconclusive; / = not tested or not shown.

SMILES	GALR2 agonist	Insulin prom inh	Insulin prom inh cell count	RGS16-Gao HTS	HSV augment	HSV augment primary fold	PKD1 inh
Cc1nn(Cc2cccc(C(=O)NCC(C)C)c2)c(C)c1Br	-1.2	-37.5	131.6	96.3	i	0.81	1.6
Cc1cccc(C)c1NC(=O)Cn1c(=O)n(CCCC(=O)NCc2ccco2)c(=O)c2sccc21	-2.3	/	/	97.7	i	1.07	-2.5
COc1ccc(/C=N/Nc2cc(C)nc(N3CCOCC3)n2)c(OC)c1	/	/	/	99.7	i	1.18	/
Fc1ccc(C2CCCN2Cc2nc(Cc3ccccc3F)no2)cc1 (stereo not drawn)	/	-43.5	87.4	101.0	i	1.09	1.1
CCSC1=C(C#N)C(c2ccc(OC)c(OC)c2)CC(=O)N1 (stereo not drawn)	-0.8	/	/	102.9	i	0.88	1.5
COc1ccc2[nH]c3c(Cl)ncnc3c2c1	-1.4	/	/	98.2	i	1.07	0.5
COC(=O)c1ccc(C2C(C(=O)c3cc4ccccc4o3)=C(O)C(=O)N2CCCN(C)C)cc1 (stereo not drawn)	-4.1	-28.6	83.0	107.0	i	0.98	12.4
COC(=O)CCCNC(=O)OCc1ccc([N+](=O)[O-])cc1	-1.9	-11.5	85.5	118.2	i	0.97	-6.7
COc1cc(Br)cc2cc(C(=O)NCC3CCCO3)c(=O)oc12 (stereo not drawn)	-1.0	/	/	99.8	i	0.97	1.8
O=C(O)Cc1ccc(C(=O)c2ccccc2F)s1	1.0	0.0	82.1	104.9	/	/	2.2
Cc1ccc(C(=O)C(OC(=O)CNC(=O)c2ccc(Cl)cc2)c2ccccc2)cc1 (stereo not drawn)	-1.2	-2.9	127.5	100.6	i	0.67	10.5
CCC1CCC(NC(=O)Nc2cccc(OC)c2)CC1 (stereo not drawn)	/	/	/	91.4	i	0.88	0.8
Cn1c(=O)c2c(ncn2CC(=O)OCC(=O)Nc2ccccc2Cl)n(C)c1=O	-0.1	/	/	102.5	i	0.82	3.8
Cn1c(Cc2ccccc2)nnc1SCC(=O)NC1CCCCC1	-2.2	-100.0	136.1	75.1	i	1.04	-3.4
CCOC(=O)c1csc(NC(C)=O)n1	/	14.3	75.9	111.7	i	1.05	-2.3
COc1cccc(OC)c1C(=O)Nc1ccccc1N1CCCC1	-2.0	-235.1	109.3	101.9	i	1.06	-8.8
O=C1c2ccccc2S(=O)(=O)N1CC(O)Cn1ccc2ccccc21 (stereo not drawn)	-2.7	23.1	122.5	103.8	?	/	2.5
CCN1CCCC1CNCc1cc(OC)c(OC)c(OC)c1 (stereo not drawn)	-1.1	-10.0	91.9	100.7	i	0.93	2.2
Cc1ccc2[nH]c(=O)c(-c3noc(-c4ccncc4)n3)cc2c1	0.6	66.7	75.6	/	/	/	-4.1
N#Cc1nc(-c2ccc(OCc3ccc(Cl)cc3)cc2)oc1N1CCC(C(N)=O)CC1	0.4	66.7	98.0	113.7	i	0.97	-1.6
O=C(C[n+]1cc(-c2ccc(Cl)c(Cl)c2)n2c1CCC2)OCc1ccccc1	-0.2	-13.3	107.0	97.7	i	1	4.0
O=C(C1=C[C@H](c2ccc(C(F)(F)F)cc2)C[C@H](OCc2ccc(CO)cc2)O1)N1CCN(Cc2ccccc2)CC1	/	/	/	101.8	i	0.94	-3.1
CCN1CCN(CCCCSc2ccccc2)CC1	-0.7	/	/	113.3	i	1.02	-3.5
CCN1C(=O)c2c(C)nc3ccccc3c2C1=O	-2.3	20.0	116.2	100.9	i	1.05	-1.1
COC(=O)C1C(=O)OC(C)(C)C1C(C)C(=O)c1ccc(C)cc1C (stereo not drawn)	/	-5.3	94.3	99.5	i	0.96	-3.4
CCOC(=O)C(C)On1c(SC(C)C(=O)OCC)nc2ccccc2c1=O (stereo not drawn)	-1.7	-75.7	87.7	100.4	i	0.85	0.4
COc1ccccc1NC(=O)COc1ccc(/C=N/NC(=O)CSCc2cc(C)cc(C)c2)cc1	-1.6	/	/	102.5	i	1.04	-6.5
CC(C)N(C(=O)CSc1nnnn1-c1ccc2c(c1)OCO2)C(C)C	/	/	/	104.5	i	1.08	-1.6
Cc1sc2nc(CN3CCOCC3)nc(N3CCC(C(N)=O)CC3)c2c1C	-3.1	55.6	153.0	/	i	0.94	0.0
COc1ccc2c(c1OC)C(=O)NC(C)=C(C(=O)OC(C)(C)C)C2O (stereo not drawn)	-1.2	-11.1	114.3	96.2	i	0.91	0.6

Entries listed so far that contain bromine, in the order listed:
SMILES	GALR2 agonist	Insulin prom inh	Insulin prom inh cell count	RGS16-Gao HTS	HSV augment	HSV augment primary fold	PKD1 inh
Cc1nn(Cc2cccc(C(=O)NCC(C)C)c2)c(C)c1Br	-1.2	-37.5	131.6	96.3	i	0.81	1.6
COc1cc(Br)cc2cc(C(=O)NCC3CCCO3)c(=O)oc12 (stereo not drawn)	-1.0	/	/	99.8	i	0.97	1.8

Next section
SMILES	GALR2 agonist	Insulin prom inh	Insulin prom inh cell count	RGS16-Gao HTS	HSV augment	HSV augment primary fold	PKD1 inh
CCCC(C)NC(=O)CSc1nnc2ccccn12 (stereo not drawn)	/	-100.0	34.3	123.6	i	0.91	-10.4
O=C1C2C3C=CC(C3)C2C(=O)N1c1nc2ccccc2s1 (stereo not drawn)	-0.8	-300.0	40.2	102.2	i	0.98	-7.5
COc1cccc(C(=O)Nc2ccc(NC(=O)c3ccco3)cn2)c1	-1.3	37.1	86.6	98.0	i	0.933	0.3
CCOC(=O)c1ccc(-c2ccc(/C=N/NC(=O)CN(c3ccccc3Br)S(C)(=O)=O)o2)cc1	0.1	7.7	103.1	31.1	/	/	-4.5
O=C(Cc1cccs1)Nc1cccc([N+](=O)[O-])c1	/	/	/	95.7	i	0.98	-3.3
Cc1occc1-c1nnc(SCC(=O)N2CC(=O)Nc3ccccc32)n1CC(C)C	-1.1	2.8	97.5	97.4	i	0.997	-1.1
COc1ccc(CNC(=O)CNC(=O)c2c(C)nn(C)c2Cl)cc1	/	-5.0	143.4	96.3	i	0.91	4.5
COc1cc(NC(=O)CN2C(=O)c3ccccc3S2(=O)=O)c(OC)cc1Cl	-2.2	/	/	100.4	i	1.04	3.2
COc1ccccc1NC(=O)C1C2C=CC3(CN(Cc4cccnc4)C(=O)C13)O2 (stereo not drawn)	-0.7	/	/	98.2	i	0.85	-6.5
CCc1ccc2[nH]c(=O)c(CN(Cc3ccco3)S(=O)(=O)c3ccc4c(c3)OCCO4)cc2c1	0.0	66.7	56.6	106.9	i	0.95	4.8
COc1ccc(OC)c(CNC(=O)COc2cc(=O)n(C)c3ccccc23)c1	-1.3	21.0	111.4	/	i	0.93	-6.8
Cc1cccc(N(CC(=O)NCc2ccc3c(c2)OCO3)C(=O)CCC(=O)Nc2ccccn2)c1C	-1.3	/	/	101.0	i	0.88	0.9
O=C(NCCc1ccc(Cl)cc1)C1CCN(S(=O)(=O)c2cccc3nonc23)CC1	-0.8	8.7	91.2	99.8	i	1.03	-5.1
Cc1ccc(S(=O)(=O)N(C)C)cc1NC(=O)COC(=O)Cc1ccc(Br)cc1	/	/	/	99.4	i	0.98	-1.2
O=C(NCCCCCNC(=O)c1ccco1)c1ccco1	1.2	/	/	99.8	i	0.94	-3.6
O=C(Nc1ccc2ncccc2c1)Nc1ccc2ncccc2c1	/	/	/	87.2	i	0.86	/
Cc1nn(-c2ccccc2)c(N2CCCC2)c1/C=N/O	-1.8	53.1	44.8	100.9	i	0.88	-6.8
CCOc1ccc(C(=O)NCC(=O)OCc2cc([N+](=O)[O-])cc3c2OCOC3)cc1OCC	/	27.3	152.1	110.3	i	0.98	-5.4
CCOC(=O)c1cnc(SCC(=O)c2ccc(Cl)cc2)nc1N	-2.5	-30.4	85.1	78.6	i	0.84	5.7
COc1cc(NC2c3ccccc3C(=O)N2Cc2ccc3c(c2)OCO3)cc(OC)c1 (stereo not drawn)	/	/	/	102.1	i	0.95	/
Cc1ccc(NS(=O)(=O)c2cc(OCC(N)=O)c(C)cc2Cl)cc1	-1.4	0.0	86.5	101.8	i	0.95	-19.4
CCOC(=O)c1nc(C)sc1-c1ccnn1S(=O)(=O)c1ccc(C)cc1	/	/	/	108.7	i	0.95	/
c1cc(-c2noc(-c3ccc4c(c3)OCO4)n2)ccn1	-2.3	-31.4	135.7	/	/	/	-2.6
CC(C)(C)n1ncc2c(=O)n(CC(=O)N3CCCc4ccccc43)cnc21	-1.5	-36.4	122.6	100.9	i	1.01	-11.4
CC1(C)Cc2ccccc2-c2nc(NCCCO)[nH]c(=O)c21	/	/	/	101.3	i	1.11	/
c1cncc(C(c2nnnn2C2CCCCC2)N2CCN3CCCC3C2)c1 (stereo not drawn)	-1.7	-187.5	109.0	107.7	i	0.95	-8.2
O=C(c1ccc2c(c1)OCO2)C1CCCN(Cc2cn[nH]c2-c2cccc(F)c2)C1 (stereo not drawn)	/	/	/	98.5	i	0.98	1.4
Cc1cccc(N(C(=O)CNC(=O)c2ccco2)C(C(=O)NC2CCCC2)c2cccnc2)c1 (stereo not drawn)	-2.1	/	/	106.7	i	1.1	-6.3
CCN(CC)C(=O)c1ccc(-c2cccs2)s1	/	/	/	102.1	i	1.07	/
O=C(c1cc(COc2ccc(F)cc2F)on1)N1CCCC(c2ccccc2)C1 (stereo not drawn)	/	/	/	107.2	i	1.01	-5.6

Among those listed so far, these contain two or more sulfur atoms.
SMILES	GALR2 agonist	Insulin prom inh	Insulin prom inh cell count	RGS16-Gao HTS	HSV augment	HSV augment primary fold	PKD1 inh
CCOC(=O)c1nc(C)sc1-c1ccnn1S(=O)(=O)c1ccc(C)cc1	/	/	/	108.7	i	0.95	/
CCN(CC)C(=O)c1ccc(-c2cccs2)s1	/	/	/	102.1	i	1.07	/

In another format: entries from further up
c1cncc(C(c2nnnn2C2CCCCC2)N2CCN3CCCC3C2)c1 (stereo not drawn)
  GALR2 agonist: -1.7	Insulin prom inh: -187.5	Insulin prom inh cell count: 109.0	RGS16-Gao HTS: 107.7	HSV augment: i	HSV augment primary fold: 0.95	PKD1 inh: -8.2

c1cc(-c2noc(-c3ccc4c(c3)OCO4)n2)ccn1
  GALR2 agonist: -2.3	Insulin prom inh: -31.4	Insulin prom inh cell count: 135.7	RGS16-Gao HTS: /	HSV augment: /	HSV augment primary fold: /	PKD1 inh: -2.6

(list continues)
SMILES	GALR2 agonist	Insulin prom inh	Insulin prom inh cell count	RGS16-Gao HTS	HSV augment	HSV augment primary fold	PKD1 inh
CCOC(=O)c1cc(C#N)c(Oc2ccccc2OC)nc1-c1ccccc1	-1.5	19.4	97.7	98.5	i	0.91	5.1
Cc1ccc(NC(=O)COC(=O)/C=C/c2cccs2)cc1	-0.7	0.0	139.4	92.6	i	0.95	-0.6
Cc1cc(Br)ccc1NC(=O)CNC(=O)Cn1ncc(Cl)c(Cl)c1=O	/	/	/	99.0	i	0.62	5.4
CN(c1ccc(OCC(=O)OCC(=O)NC2CCCC2)cc1)S(=O)(=O)c1ccc2ccccc2c1	/	/	/	101.3	i	1	2.3
CC(C)CNC(=O)COC(=O)c1cc(Cl)cc(Cl)c1N	0.5	-15.9	80.1	99.0	i	0.84	1.4
Cn1cccc1-c1nc2ccc(NC(=O)c3cccs3)cc2[nH]1	-3.3	33.3	65.5	101.5	i	0.963	-4.2
O=C(O)CCCNC(=O)CC1S/C(=N/N=C/c2ccccc2O)NC1=O (stereo not drawn)	/	35.7	127.8	96.8	i	1.1	11.5
O=C(N/N=C/c1cccc([N+](=O)[O-])c1)c1ccc(COc2ccccc2-c2ccccc2)cc1	-1.0	-6.7	55.9	101.5	i	0.8	-4.8
O=C(CSc1ccc(Cl)cc1)N1CCN(c2ncc(C(F)(F)F)cc2Cl)CC1	-3.5	-45.2	93.5	100.5	i	0.84	-13.6
Cc1ccc(NC(=O)N(Cc2cccnc2)Cc2ccco2)cc1C	-1.7	45.7	70.7	101.4	i	0.88	-0.7
Cc1ccc(C(C(=O)NC2CCCC2)N(Cc2cccnc2)C(=O)c2snc(C(N)=O)c2N)o1 (stereo not drawn)	-1.4	/	/	88.0	i	0.96	-3.1
Cc1cc(N2CCN(S(=O)(=O)c3ccc(C)c(C)c3)CC2)c2ccccc2n1	1.4	-15.4	92.3	104.7	i	0.89	-7.6
CCOc1ccccc1NC(=S)NC(=O)CCCOc1ccc(Cl)cc1Cl	-0.1	-21.1	163.6	111.8	i	0.8	-6.1
COC(=O)CSc1nnc(-c2ccc(S(=O)(=O)N3CCC(C)CC3)cc2)o1	-1.9	/	/	100.4	i	0.59	-18.9
COc1ccc(CC(=O)NNC(=O)c2ccncc2)cc1	/	/	/	106.8	i	0.98	-0.6
CC(=O)C1=C(O)C(=O)N(c2cccnc2)C1c1ccc([N+](=O)[O-])cc1 (stereo not drawn)	/	/	/	102.1	i	0.95	7.1
Cn1c(-c2ccc(Cl)cc2)ccc(C#N)c1=O	-2.0	-19.4	77.6	103.0	i	1.18	2.2
